# Mtb growth – M. tuberculosis H37Rv growth inhibitors, H37Rv strain (AID 1626) | 220,000 compounds, 0.95% hits | M. tuberculosis H37Rv growth inhibition; higher % means a stronger effect | one-dose inhibition, % at 10 µM; IC50 in µM for titrated hits;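 active means confirmed in a dose series; inconclusive means inhibition above 80% but not taken into the dose series; inactive means below 80% or under 30% at every dose of the series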;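 further: bacteria incubated seven days before Alamar blue readout; 0% = bacteria only wells and 100% = bacteria with antibiotic wells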
# YopH PTP inh – YopH (Yersinia) phosphatase inhibition; fluorescence Ex485/Em525; inhibition, %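 (about 10 µM by stock and volumes)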; 140,000 compounds, 0.16% hits;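 active means inhibition of 50% or more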;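 further: controls were vehicle for no effect and minimum signal wells for full effect; inactives centre near -20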
# Arbovirus inh – arbovirus infection inhibition; arbovirus infection cell-based antiviral screen; inhibition, % at 10 µM; 200,000 compounds, 0.37% hits;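 active means inhibition from about 30%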;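 further: bluetongue infection of BSR cells; cell survival read as ATP light after 72 h; 0% = infected wells without compound and 100% = uninfected wells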
# RecA intein inh – Mtb RecA intein splicing inhibition; inhibition, %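 (about 9 µM by stock and volumes)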; cell-free RecA intein splicing, fluorescence; 290,000 compounds, 0.75% hits; in the data active means inhibition above about 30%; inconclusive means no clear call, values can overlap the other calls;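 further: 0% = vehicle wells and 100% = reference inhibitor control wells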
# Target sequence (P9WHJ3 whole entry, looked up): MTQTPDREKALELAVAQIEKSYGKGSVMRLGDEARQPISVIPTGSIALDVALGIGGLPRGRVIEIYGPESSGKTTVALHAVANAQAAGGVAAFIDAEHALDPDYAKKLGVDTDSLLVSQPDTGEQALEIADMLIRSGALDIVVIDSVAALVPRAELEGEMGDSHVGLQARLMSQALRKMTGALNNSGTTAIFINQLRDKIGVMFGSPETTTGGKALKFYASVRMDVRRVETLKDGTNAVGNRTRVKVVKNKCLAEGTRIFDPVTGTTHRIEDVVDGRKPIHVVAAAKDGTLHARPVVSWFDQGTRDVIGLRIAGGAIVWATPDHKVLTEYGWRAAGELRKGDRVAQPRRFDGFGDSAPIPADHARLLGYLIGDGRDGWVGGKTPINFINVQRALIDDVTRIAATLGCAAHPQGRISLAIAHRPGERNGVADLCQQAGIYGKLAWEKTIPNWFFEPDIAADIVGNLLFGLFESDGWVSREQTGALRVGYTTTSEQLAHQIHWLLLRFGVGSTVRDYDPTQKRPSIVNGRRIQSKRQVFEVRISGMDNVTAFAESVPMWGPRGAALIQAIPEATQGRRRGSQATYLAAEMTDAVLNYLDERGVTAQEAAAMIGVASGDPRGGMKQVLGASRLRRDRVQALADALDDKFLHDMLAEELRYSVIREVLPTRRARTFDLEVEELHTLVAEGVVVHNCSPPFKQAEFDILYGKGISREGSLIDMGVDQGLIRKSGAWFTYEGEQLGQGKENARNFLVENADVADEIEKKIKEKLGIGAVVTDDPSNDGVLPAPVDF
# Mtb betalactam – beta-lactam sensitization of Mtb H37Rv. M. tuberculosis H37Rv growth with meropenem, percent inhibition; hits of this screen are not shown here. inhibition, % at 25 µM. 330,000 compounds, 0.27% hits. AID 434955;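 active means about 74% or more and at least 40 points above the plate without the antibiotic, then above 30% in a dose series; inconclusive means first-round hits that could not be retested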;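 further: growth measured after seven days incubation then overnight dye step; 0% = bacteria only wells and 100% = bacteria with antibiotic; twin plates without the antibiotic show which effects depend on it; some results filed as inactive read as strong as hits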
# Arbovirus inh repeat – further read-out of Arbovirus inh, marked with its call; inhibition, %; measured here: 10K subset replicate screen; many hits read low in the repeat;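 first of two repeat runs on a subset; 0% = infected and 100% = uninfected wells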
# * marks the source's active call; other numbers are inactive results; ? = inconclusive; · = no result given. Not all compounds are listed; count on the stated rates, not on these rows.
SMILES,Mtb growth,YopH PTP inh,Arbovirus inh,RecA intein inh,Mtb betalactam,others
COc1ccc2[nH]c(=O)c(CN(C(=O)C3CCCO3)c3ccc(C)c(C)c3)cc2c1 (stereo not drawn),2%,·,·,-3.8,-1,
Nc1c(C(=O)N/N=C/c2ccccc2)cnn1-c1ccccc1,1%,·,·,-4.7,5,
Cc1ccc(CN2CCN(c3ncccn3)CC2)o1,-10%,6,5,-2.9,4,
CCCCn1c(CN2CCN(CCO)CC2)nc2ccccc21,-5%,3,8,11,-1,
CCOC(=O)c1c(NC(=O)Cn2nc(C(F)(F)F)cc2C)sc2c1CCC2,6%,-12,-5,-1.1,-2,
COc1ccc(OC)c(NS(=O)(=O)c2ccc(N3CCCC3=O)cc2)c1,-4%,-34,-14,-0.6,-9,
Cc1nc(SCC(=O)NC2CCCC2)[nH]c(=O)c1Cc1ccccc1,-10%,-29,3,0.8,-2,
O=C1C=C(N2CCCCC2)C2(CCCCC2)O1,1%,·,-1,-1.9,-6,
Cc1cc(N/N=C/c2ccc(F)cc2)nc(NCc2ccccc2)n1,14%,·,·,0.6,87,
Clc1ccccc1Nc1nc(-c2ccncc2)nc2ccccc12,·,·,·,0.4,?,
CC(CCc1ccccc1)NC(=O)COC(=O)C1CCC(C(C)(C)C)CC1 (stereo not drawn),-1%,-12,6,-2.3,6,
O=C(CSc1ncn[nH]1)c1ccc2c(c1)OCO2,-6%,57*,19,-4.5,18,
CC(=O)Nc1ccc(NC(=O)CSc2nnc(CNc3ccc(F)cc3)n2CC2CCCO2)cc1 (stereo not drawn),1%,·,14,-3.0,3,
COc1ccc(CCNC(=O)CCCN2C(=O)c3ccccc3C2=O)cc1OC,-4%,-41,6,1.0,5,
CCCSc1nc2c(c(=O)n1-c1ccc(OCC)cc1)SCC2,-3%,-2,4,0.1,?,
Nc1ccccc1N1CCN(C(=O)c2ccccc2)CC1,-7%,5,5,1.2,7,
Cc1cc(C(=O)Cn2nc(C(=O)O)c3ccccc3c2=O)c(C)n1CCc1ccc(Cl)cc1,69%,·,12,5.1,59,
CCN1C(=O)C(=O)N(CC(=O)N2CCN(c3ccccc3)CC2)C1=O,·,·,·,-1.1,4,
Cc1cccc(NC(=O)CCCSc2nc3ccccc3[nH]2)c1,-2%,-22,0,3.5,-12,
CCc1ccc2[nH]c3nc(SCCN4CCOCC4)nnc3c2c1,·,·,·,-1.4,3,
O=C1N=C(N2CCC(Cc3ccccc3)CC2)S/C1=C/c1cn[nH]c1-c1ccccc1,57%,-25,-4,3.6,99,
O=C1NC2(CCCCCC2)C(=O)N1Cc1c(F)cccc1Cl,·,·,·,2.2,-5,
O=C(CN1CCN(c2ccc(Cl)cc2)CC1)c1ccccc1,·,·,·,5.7,-1,
CCOc1ccccc1CN1CCC(O)CC1,-14%,-8,0,-2.3,5,
O=C1COc2ccc(C(=O)COC(=O)c3ccc(Cl)cc3[N+](=O)[O-])cc2N1,·,·,·,1.3,-1,

# Overlap with the part before: three compounds, then new ones.
SMILES,Mtb growth,YopH PTP inh,Arbovirus inh,RecA intein inh,Mtb betalactam,others
O=C(CN1CCN(c2ccc(Cl)cc2)CC1)c1ccccc1,·,·,·,5.7,-1,
CCOc1ccccc1CN1CCC(O)CC1,-14%,-8,0,-2.3,5,
O=C1COc2ccc(C(=O)COC(=O)c3ccc(Cl)cc3[N+](=O)[O-])cc2N1,·,·,·,1.3,-1,
CCOC(=O)C(C(=O)OCC)c1cc(Br)c2noc3c2c1C(=O)c1ccccc1-3,?,24,-28,82*,100,Arbovirus inh repeat=-26
CCC(C)Nc1nc(OC)nc(N(C)C#N)n1 (stereo not drawn),0%,-22,-3,1.2,13,
COCCCN1CC(=O)N2Cc3[nH]c4ccccc4c3C[C@H]2C1=O,·,·,·,-3.7,-8,
Cc1cc(C)cc(NC(=O)Cn2cnc3c(nnn3Cc3ccc(F)cc3)c2=O)c1,8%,·,-4,-2.8,0,
Cc1ccc2c(C)c(C(=O)NCc3ccc(S(N)(=O)=O)cc3)oc2c1C,0%,·,-21,-0.9,-14,
COc1cccc(-n2c(SCC(=O)NCc3ccco3)nnc2-c2c[nH]c3ccccc23)c1,1%,-47,8,4.5,-3,
O=C(O)CSc1ccc2ccccc2n1,1%,-31,3,-2.0,2,
O=C(COC(=O)C1COc2ccccc2O1)Nc1ccc2c(c1)CCC2 (stereo not drawn),0%,-33,10,0.6,1,
CC1(C)NC(=O)N(CCCCSc2ccc(Cl)cc2)C1=O,0%,-8,15,-3.2,-13,
O=C(CCCNS(=O)(=O)c1cccc2nsnc12)NCc1ccc(F)cc1,-4%,-1,7,-11,-9,
COC(=O)[C@@H]1C2CCC(C(=O)Nc3ccccc3)(CC2)[C@@H]1C(=O)OC,-1%,-31,9,2.9,9,
C=CCN=c1scc(-c2ccc3c(c2)NC(=O)CO3)n1/N=C(\C)c1ccccn1,13%,·,0,·,·,
COc1ccc(NC2=NCC(C)S2)cc1 (stereo not drawn),5%,·,-5,-0.2,13,
COc1cccc(C(=O)Nc2cccnc2)c1OC,0%,·,1,4.8,1,
COc1ccc(S(=O)(=O)N(C)CC(=O)NCc2ccco2)cc1Cl,·,·,·,-2.7,3,
Cc1cccc(C)c1OCC(=O)OCC(=O)c1ccc2c(c1)NC(=O)CO2,3%,-3,-5,4.7,8,
CC(CN1CCCCC1)OC(=O)C(C)(c1ccccc1)c1ccccc1 (stereo not drawn),-7%,-8,-3,2.5,0,
CC(=O)c1ccc(N2CCN(C(=O)Nc3ccc(F)cc3F)CC2)cc1,5%,·,-1,1.7,-6,
O=C(O)CSc1nc2ccc(C(=O)c3ccccc3)cc2[nH]1,·,·,·,-1.0,1,
COc1ccc(Br)cc1CN(C)CC(=O)NCCc1ccccc1,-1%,·,0,-4.4,-1,
NC(=O)c1ccc(NC(=O)CCC(=O)c2cccs2)cc1,·,·,·,1.7,-2,
C=CCn1c(CNS(=O)(=O)c2ccc(F)cc2)n[nH]c1=S,·,·,·,-5.0,4,
COc1ccc(CCC(C)N2CCOCC2)cc1 (stereo not drawn),·,·,·,-2.0,1,
CC(=O)c1c(Nc2cccc(F)c2)oc(C)cc1=O,1%,·,·,0.6,-3,
COc1ccc(C(=O)Nc2cccc(S(C)(=O)=O)c2)cc1OC,8%,·,11,-2.2,-7,

# (cont.)
SMILES,Mtb growth,YopH PTP inh,Arbovirus inh,RecA intein inh,Mtb betalactam,others
O=C(N/N=C/C1CC2CCC1C2)c1c[nH]c2ccccc12 (stereo not drawn),-1%,·,-5,-2.8,10,
Cc1ccc(-c2c(C)n([O-])c3c([n+]2=O)CCCC3)cc1,-3%,·,8,-1.1,1,
CN(C(=O)CSc1nncn1C)C1CCCN(Cc2ccccc2F)C1 (stereo not drawn),·,·,·,1.0,?,
Cc1ccc(CNC(=O)C2CCCN(S(=O)(=O)c3cnc[nH]3)C2)cc1 (stereo not drawn),6%,-12,7,-2.8,-4,Arbovirus inh repeat=5
CSC(=CC(=O)c1ccccc1)SC,-8%,-21,0,1.3,26,
CN1CCN(c2ccc(Cl)cc2NC(=O)c2ccc(=O)n(C)n2)CC1,4%,·,12,1.2,18,
COc1ccc(C(=O)C(CN2CCOCC2)c2ccccc2)cc1 (stereo not drawn),?,-1,-41,4.2,100,
c1ccc(SCc2nc(-c3ccccn3)no2)cc1,-7%,14,-3,-0.8,-4,
Cc1ccc(-c2sc(C)nc2CC(=O)O)cc1,-2%,-40,7,-0.1,-5,
Cc1cc(Sc2nc(N)ncc2[N+](=O)[O-])ncn1,-1%,·,-12,·,77,
COc1ccc2oc(C(=O)OCc3c(C)noc3C)c(C)c2c1,5%,·,7,2.2,4,
COc1ccc(CN2CCC(n3nccc3NC(=O)CCCc3ccccc3)CC2)cc1C,·,·,·,0.1,7,
O=C(Nc1ccc(N2CCCCC2)cc1)c1ccc2ccccc2n1,6%,·,0,-4.0,-1,
CCCCCCC(=O)Nc1cc2c(C)cc(=O)oc2cc1C,1%,-9,-5,-1.6,-9,
COC(=O)c1ccc(COC(=O)c2c(C)nn(Cc3ccccc3Cl)c2Cl)o1,0%,10,-1,13,39,
COC(=O)Cc1ccc(NC(=O)c2cccs2)cc1,27%,-30,-2,-0.6,63,
CCOC(=O)C1=C(C)N(C)C(=S)NC1c1cc(OC)ccc1OC (stereo not drawn),-3%,·,-2,-2.8,-11,
O=C(O)CC1COc2ccccc2N1S(=O)(=O)c1ccc(Br)cc1 (stereo not drawn),·,·,·,1.5,4,
COCCN(C(=S)Nc1ccccc1C)C(C)c1cccnc1 (stereo not drawn),-5%,-14,-2,0.5,-1,
CCn1c(=O)n(CC)c2cc(N3CCCC3)c(NC(=O)c3ccc(F)cc3)cc21,·,·,·,-6.4,26,
COc1ccc(N2CCN(C(=O)C3(S(=O)(=O)c4ccc(C)cc4)CC3)CC2)cc1,·,·,·,-0.3,-8,
COc1nnc(-c2ccc(N3CCCCC3)c(NC(=O)C3CCCCC3)c2)c2ccccc12,·,-12,-6,-1.7,8,
CC1=CC2=NC(=O)/C(=C\c3cc(C)n(-c4ccccc4F)c3C)C(=N)N2O1,4%,-29,1,-4.6,-1,
Cc1ccccc1CSc1nc(C(C)(C)C)cc(=O)[nH]1,0%,·,9,0.7,-1,
N/C(=N\NC(=O)Nc1ccccc1)c1ccccn1,0%,·,·,-2.1,33,

# Grouped by structure: the compounds so far containing bromine.
SMILES,Mtb growth,YopH PTP inh,Arbovirus inh,RecA intein inh,Mtb betalactam,others
CCOC(=O)C(C(=O)OCC)c1cc(Br)c2noc3c2c1C(=O)c1ccccc1-3,?,24,-28,82*,100,Arbovirus inh repeat=-26
COc1ccc(Br)cc1CN(C)CC(=O)NCCc1ccccc1,-1%,·,0,-4.4,-1,
O=C(O)CC1COc2ccccc2N1S(=O)(=O)c1ccc(Br)cc1 (stereo not drawn),·,·,·,1.5,4,

# In the list so far, these have two or more sulfur atoms:
SMILES,Mtb growth,YopH PTP inh,Arbovirus inh,RecA intein inh,Mtb betalactam,others
CCCSc1nc2c(c(=O)n1-c1ccc(OCC)cc1)SCC2,-3%,-2,4,0.1,?,
O=C(CCCNS(=O)(=O)c1cccc2nsnc12)NCc1ccc(F)cc1,-4%,-1,7,-11,-9,
C=CCn1c(CNS(=O)(=O)c2ccc(F)cc2)n[nH]c1=S,·,·,·,-5.0,4,
CSC(=CC(=O)c1ccccc1)SC,-8%,-21,0,1.3,26,

# 2 records drawn at random from those above:
SMILES,Mtb growth,YopH PTP inh,Arbovirus inh,RecA intein inh,Mtb betalactam,others
Cc1ccc(-c2sc(C)nc2CC(=O)O)cc1,-2%,-40,7,-0.1,-5,
O=C(O)CC1COc2ccccc2N1S(=O)(=O)c1ccc(Br)cc1 (stereo not drawn),·,·,·,1.5,4,

# Additional compounds
SMILES,Mtb growth,YopH PTP inh,Arbovirus inh,RecA intein inh,Mtb betalactam,others
COc1ccc(OCCC(=O)NCC23CC4CC(CC(C4)C2)C3)cc1,10%,·,-5,2.8,4,
O=C(Nc1nnc(S(=O)(=O)N2CCOCC2)s1)c1cccc(Br)c1,·,·,·,-0.6,6,
CC1=NC(C(F)(F)F)(C(F)(F)F)C(C#N)=C(C)N1,0%,4,5,-1.8,-3,
COc1ccc(OC)c(-n2c(CNC3CCN(Cc4ccccc4)CC3)nc3ccccc3c2=O)c1,9%,8,9,0.1,-4,
Cc1ccc(-c2cn3c(=O)cc(C)[nH]c3n2)cc1,-2%,-30,4,-4.6,-2,
Cc1cc2nc(CSc3ccccc3)cc(=O)n2[nH]1,6%,·,2,-3.0,-8,

# From PubChem BioAssay
